PINK1 modulator – PINK1 expression modulation; PINK1 immunofluorescence, high-content cytometry, 24 h; 410,000 compounds, 0.2% hits; AID 624263; Potency, µM (titrated, usually from 76.6 µM), for the others: top-dose activation (PINK1 increase), hits mostly activators; active = well fitted activation curve with a large enough effect; inconclusive = small, poorly fitted or top-dose-only effect; inactive = flat fitted curve, though single readings scatter; cell line not stated here;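 note: potency is the fitted concentration of half-maximal effect; % of control where 0% means no effect; nearly all actives have a fitted effect of over 65% in size; a mitochondrial uncoupler was the plate control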
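PINK1 protein, normally rapidly degraded, was detected by immunofluorescence after 24 hour compound treatment of a stable cell line. Titration data (5 concentrations) came from laser-scanning cytometry, with CCCP-treated wells as controls.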
Six1-Eya2 inh – blocks human Six1 binding to Eya2. Q15475+O00167. AlphaScreen GST-Six1/His-Eya2 binding, biochemical; active compounds read low; control for the full effect not named in the record. activity change, % (no concentration beside the values). 360,000 compounds, 0.56% hits. AID 651725; in the data active = activity change below about -65%; inconclusive = about -30% to -65%; inactive = above about -30%; note: % is set by controls: 0 for no effect and ±100 for the full control effect
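AlphaScreen luminescence read after one hour at 37 °C in darkness. Pin-transferred compounds met GST-Six1 and His-Eya2 protein (5X stock 250 nM/500 nM) plus glutathione donor and Ni-chelate acceptor beads (5X, 50 ug/mL).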
D2 ag – human D2 receptor agonism in beta-arrestin assay; 360,000 compounds, 0.084% hits; DiscoveRx PathHunter D2 beta-arrestin, luminescence, 90 min; 100% = 57 uM dopamine signal; AID 624465; activation, % (concentration not given with the values); P14416; in the data active = activation above about 40%; inconclusive = about 15% to 40%; inactive = below about 15%; note: the text of the record calls up to 30% inactive
Target sequence (P14416 whole entry, looked up): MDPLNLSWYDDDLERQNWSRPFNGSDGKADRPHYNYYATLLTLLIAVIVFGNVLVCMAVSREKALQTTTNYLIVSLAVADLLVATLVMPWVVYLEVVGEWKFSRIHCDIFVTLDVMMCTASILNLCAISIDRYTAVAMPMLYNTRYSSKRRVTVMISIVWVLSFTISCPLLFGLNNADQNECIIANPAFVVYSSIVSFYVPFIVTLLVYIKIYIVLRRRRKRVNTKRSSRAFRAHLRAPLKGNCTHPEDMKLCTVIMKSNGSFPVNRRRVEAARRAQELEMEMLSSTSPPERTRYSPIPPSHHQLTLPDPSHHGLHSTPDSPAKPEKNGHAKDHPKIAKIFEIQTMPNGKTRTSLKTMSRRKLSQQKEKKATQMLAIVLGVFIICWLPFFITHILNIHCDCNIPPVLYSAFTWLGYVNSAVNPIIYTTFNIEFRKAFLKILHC
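DiscoveRx PathHunter D2 beta-arrestin cells (2,100/well) attached overnight, then compound-stimulated 90 min at 37 C in HBSS/10 mM HEPES/0.1% Tween-20 buffer; beta-galactosidase complementation read by luminescence after 1 h at ambient temperature. Dopamine 57 uM final (EC100) as control.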
TRPML1 agonist – agonists of human TRPML1 channel; AID 624414; TRPML1-expressing cells, Ca2+ dye fluorescence, FDSS; host cell line not named in the record; reference of the full effect not given here; activation, % (concentration not given with the values); Q9GZU1; 410,000 compounds, 0.12% hits; in the data active = activation above about 50%; inconclusive = about 30% to 50%; inactive = below about 30%; note: 0% is about no effect; the text of the record puts the active cut at 80%
Target sequence (Q9GZU1 whole entry, looked up): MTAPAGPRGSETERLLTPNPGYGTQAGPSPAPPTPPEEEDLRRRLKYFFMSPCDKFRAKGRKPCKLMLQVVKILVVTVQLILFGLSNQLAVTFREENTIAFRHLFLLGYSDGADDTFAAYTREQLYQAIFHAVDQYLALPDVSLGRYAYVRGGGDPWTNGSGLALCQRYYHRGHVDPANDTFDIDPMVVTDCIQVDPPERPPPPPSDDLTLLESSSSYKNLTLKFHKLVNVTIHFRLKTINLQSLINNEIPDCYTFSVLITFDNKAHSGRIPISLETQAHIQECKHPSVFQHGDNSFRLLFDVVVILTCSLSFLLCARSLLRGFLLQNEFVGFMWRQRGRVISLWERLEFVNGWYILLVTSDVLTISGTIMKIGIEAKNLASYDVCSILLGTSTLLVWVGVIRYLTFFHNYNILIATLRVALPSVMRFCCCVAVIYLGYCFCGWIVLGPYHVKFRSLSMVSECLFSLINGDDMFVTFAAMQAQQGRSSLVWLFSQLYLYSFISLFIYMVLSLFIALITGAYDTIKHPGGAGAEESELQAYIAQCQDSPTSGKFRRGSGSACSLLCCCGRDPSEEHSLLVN
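Tetracycline-induced TRPML1-DL cells are seeded and incubated overnight before loading with a no-wash Ca2+ dye and quencher. Agonist activity is taken from the 110 s fluorescence read following compound pin-transfer on an FDSS, before EC80 54-4 challenge.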
CtBP-E1A inh – inhibitors of CtBP/E1A interaction; AlphaScreen GST-E1A/His-CtBP binding, 1536-well; active compounds read low; control for the full effect not named in the record; activity change, % (concentration not given with the values); 340,000 compounds, 0.49% hits; AID 651724; in the data active means activity change below about -65%; inconclusive means about -30% to -65%; inactive means above about -30%; note: % is set by controls: 0 for no effect and ±100 for the full control effect
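Steps: dispense buffer (Tris pH 8.0, NaCl 300 mM, TCEP 1 mM, BSA, Tween 20); add 5X protein mix (GST-E1A, His-CtBP, 125 nM each); pin 23 nL compound; 2 h at 37 °C, dark; add 5X beads (50 ug/mL); 1 h; read.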
D2 potentiator – positive allosteric modulators of human D2 dopamine receptor; DiscoveRx D2 beta-arrestin cells, luminescence, 90 min; 100% = 57 uM dopamine signal; potentiation, % (no concentration beside the values); 360,000 compounds, 0.23% hits; AID 624464; active = potentiation of 50% or more; inconclusive = 30% to 50%; inactive = 30% or less;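 note: compound concentration not given in the record; tested on top of an EC20 dose of dopamine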
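D2 cells co-treated with compound plus 50 nM dopamine (EC20) for 90 min at 37 deg C to detect potentiation. Beta-arrestin recruitment was read as enzyme-fragment luminescence after 1 h at ambient temperature. Full response was set by 57 uM dopamine.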
Active calls of the source: *; [ ] = another dose, or the depositor's remark.

Start of the data: the first two records, to show the layout:
`COc1cccc(N2CCN(c3ccc4nnc(CCC(=O)Nc5ncccc5C)n4n3)CC2)c1` gave PINK1 modulator -0.3%, Six1-Eya2 inh -7.1, D2 ag -1.7, TRPML1 agonist 0.0, CtBP-E1A inh -8.8 and D2 potentiator 6.2.
For COc1ccccc1NC(=O)Oc1ccc(NC(=O)c2ccco2)cc1 the results were PINK1 modulator -0.7%, Six1-Eya2 inh -1.6, D2 ag -1.1, TRPML1 agonist -0.4, CtBP-E1A inh -1.6 and D2 potentiator -6.9.

Results, repeating the preview:
`COc1cccc(N2CCN(c3ccc4nnc(CCC(=O)Nc5ncccc5C)n4n3)CC2)c1` gave PINK1 modulator -0.3%, Six1-Eya2 inh -7.1, D2 ag -1.7, TRPML1 agonist 0.0, CtBP-E1A inh -8.8 and D2 potentiator 6.2.
For COc1ccccc1NC(=O)Oc1ccc(NC(=O)c2ccco2)cc1 the results were PINK1 modulator -0.7%, Six1-Eya2 inh -1.6, D2 ag -1.1, TRPML1 agonist -0.4, CtBP-E1A inh -1.6 and D2 potentiator -6.9.
`CCCCN1C(=O)C(=O)N(CC(=O)c2cc(C)n(C3CC3)c2C)C1=O` gave PINK1 modulator 1.4%, Six1-Eya2 inh -0.8, D2 ag -2.0, TRPML1 agonist 0.3, CtBP-E1A inh -2.9 and D2 potentiator -6.1.
For O=C(COc1ccc(Cl)cc1)NCc1nnc(SCC(=O)Nc2ccc(F)cc2F)o1 the results were PINK1 modulator 0.5%, Six1-Eya2 inh 0.5, D2 ag 0.8, TRPML1 agonist 0.9, CtBP-E1A inh 7.2 and D2 potentiator 0.2.
For Cc1ccc(/C=C/S(=O)(=O)NCCC(=O)NCc2ccccc2F)cc1 the results were PINK1 modulator -0.6%, Six1-Eya2 inh 3.7, D2 ag 3.3, TRPML1 agonist -0.4, CtBP-E1A inh -3.9 and D2 potentiator -1.6.
COc1ccc(-c2nnc(SCC(=O)NCC3CCCO3)n2C)cc1 (configuration not stated) was read as PINK1 modulator 13.3%, Six1-Eya2 inh 2.0, D2 ag 2.4, TRPML1 agonist -1.0, CtBP-E1A inh 6.5 and D2 potentiator 4.9.
Screening CCOC(=O)C1=NOC(CNC(=O)c2c(-c3ccccc3Cl)noc2C)C1 (configuration not stated) returned PINK1 modulator 0.0%, Six1-Eya2 inh -7.1, D2 ag -1.3, TRPML1 agonist 1.9, CtBP-E1A inh -2.2 and D2 potentiator -12.7.
Screening O=C(Cn1nnc(-c2ccccc2)n1)N=Nc1c(O)[nH]c2ccccc12 returned PINK1 modulator 4.6%, Six1-Eya2 inh 2.9, D2 ag -1.0, TRPML1 agonist 1.8, CtBP-E1A inh -8.2 and D2 potentiator -6.6.
For COc1ccc(Cl)cc1NC(=O)COC(=O)C1=NNC(=O)CC1 the results were PINK1 modulator 3.2%, Six1-Eya2 inh 6.8, D2 ag -2.6, TRPML1 agonist 1.2, CtBP-E1A inh 0.0 and D2 potentiator -11.7.
O=C(NC1CCCCC1)c1ccc(Cn2cc(Br)cn2)o1 was read as PINK1 modulator 0.1%, Six1-Eya2 inh 1.1, D2 ag -4.3, TRPML1 agonist -0.5, CtBP-E1A inh 4.0 and D2 potentiator -19.7.
For O=C1C(c2ccccc2)C2C=CC(C2)N1O (configuration not stated) the results were PINK1 modulator 0.6%, Six1-Eya2 inh 7.3, D2 ag 2.9, TRPML1 agonist 0.2, CtBP-E1A inh -16.7 and D2 potentiator -6.8.
For Cc1ccc(NC(=O)COC(=O)CCC(=O)c2cccs2)cc1 the results were PINK1 modulator 2.5%, Six1-Eya2 inh -0.3, D2 ag -2.6, TRPML1 agonist -0.9, CtBP-E1A inh 9.5 and D2 potentiator -9.8.
For COc1ccc(N(C(=O)c2ccco2)S(=O)(=O)c2ccc(F)cc2)cc1 the results were PINK1 modulator -2.1%, Six1-Eya2 inh -2.4, D2 ag -5.0, TRPML1 agonist 2.3, CtBP-E1A inh -0.5 and D2 potentiator -5.9.
`O=C(Nc1ccc(N2CCOCC2)cc1)Nc1ccc2nsnc2c1` gave PINK1 modulator 2.9%, Six1-Eya2 inh 4.8, D2 ag -7.6, TRPML1 agonist -0.2, CtBP-E1A inh -15.4 and D2 potentiator -5.1.
For COc1ccc(/C=C2\N=C(c3ccc(C)cc3)OC2=O)cc1 the results were PINK1 modulator -1.0%, Six1-Eya2 inh -4.6, D2 ag -5.3, TRPML1 agonist -0.2, CtBP-E1A inh 4.2 and D2 potentiator -7.9.
For N#Cc1ccc2ccn(CC(=O)NCc3ccccc3)c2c1 the results were Six1-Eya2 inh 6.3, D2 ag -1.9, TRPML1 agonist 0.0, CtBP-E1A inh 3.5 and D2 potentiator -16.4.
For O=C(CN1C(=O)NC2(CCCc3ccccc32)C1=O)N1CCCCC1 (configuration not stated) the results were PINK1 modulator -1.1%, Six1-Eya2 inh 8.3, D2 ag -5.7, TRPML1 agonist -0.2, CtBP-E1A inh 5.5 and D2 potentiator -14.7.
`CN(C)CCCN(C(=O)c1ccc2c(c1)CCCC2)c1nc2cc3c(cc2s1)OCO3` gave PINK1 modulator 0.1%, Six1-Eya2 inh -23.4, D2 ag -4.9, TRPML1 agonist -0.9, CtBP-E1A inh inconclusive and D2 potentiator -19.9.
Screening COc1cccc(C(C)(O)c2nc(-c3ccccc3OC)cs2)c1 (configuration not stated) returned PINK1 modulator 14.3%, Six1-Eya2 inh 4.2, D2 ag -1.8, TRPML1 agonist -0.1, CtBP-E1A inh 2.3 and D2 potentiator 2.8.
`COc1cccc2[nH]c(C(=O)NCCCN3CCCC3=O)cc12` gave PINK1 modulator 2.9%, Six1-Eya2 inh -2.1, D2 ag -1.5, TRPML1 agonist -0.4 and D2 potentiator 0.6.
Screening N#Cc1ccc(C(=O)OCC(=O)Nc2ccc(N3CCOCC3)cc2)cc1 returned PINK1 modulator 1.8%, Six1-Eya2 inh 4.8, D2 ag 6.3, TRPML1 agonist 0.4, CtBP-E1A inh 1.0 and D2 potentiator -0.1.
Screening CCn1c(SCC(=O)c2ccccc2)nc2c(c1=O)SC(C)C2 (configuration not stated) returned PINK1 modulator -0.1%[38.3 µM], Six1-Eya2 inh -19.2, D2 ag -1.7, TRPML1 agonist 1.6, CtBP-E1A inh 0.0 and D2 potentiator -24.3.
Screening O=C(Oc1ccccc1)c1cccc2cccnc12 returned PINK1 modulator 2.3%[38.3 µM], Six1-Eya2 inh inconclusive, D2 ag 0.0, TRPML1 agonist -0.5, CtBP-E1A inh inconclusive and D2 potentiator -10.7.
`Cc1cc(F)ccc1C(O)c1ncc(-c2ccccc2)[nH]1` (configuration not stated) gave PINK1 modulator 1.0%, Six1-Eya2 inh -12.5, D2 ag -4.8, TRPML1 agonist -1.2, CtBP-E1A inh 0.3 and D2 potentiator -8.2.
`Cn1c(Cc2ccccc2)nnc1SCC(=O)NC1CCCC1` gave PINK1 modulator 1.3%, Six1-Eya2 inh -2.1, D2 ag -1.5, TRPML1 agonist -0.4, CtBP-E1A inh 1.7 and D2 potentiator -5.0.
Screening C=CCSc1nc(-c2ccc(OC)cc2)c(C#N)c(=O)n1CC=C returned PINK1 modulator 5.8%, Six1-Eya2 inh 10.6, D2 ag -3.1, TRPML1 agonist 3.8, CtBP-E1A inh 4.4 and D2 potentiator 2.3.
For O=C(Nc1ccc(N2CCN(C(=O)c3cccs3)CC2)cc1)c1ccco1 the results were PINK1 modulator 1.4%, Six1-Eya2 inh 16.2, D2 ag -0.4, TRPML1 agonist -0.4, CtBP-E1A inh 0.0 and D2 potentiator -11.6.
For CCOC(=O)/C=C1\SCC(=O)N1CC(O)CN1C(=O)CS/C1=C\C(=O)OCC the results were PINK1 modulator 2.6%, Six1-Eya2 inh 3.4, D2 ag -0.8, TRPML1 agonist -0.7, CtBP-E1A inh -9.6 and D2 potentiator 8.4.
Cc1cccc(C(=O)OCC(=O)NCCCc2ccccc2)c1O was read as PINK1 modulator 0.1%, Six1-Eya2 inh 1.7, D2 ag -0.4, TRPML1 agonist 2.2, CtBP-E1A inh 2.4 and D2 potentiator -10.7.
`Nc1c(N(CCC2=CCCCC2)C(=O)C2CC2)c(=O)[nH]c(=O)n1Cc1ccccc1` gave PINK1 modulator -2.1%, Six1-Eya2 inh 1.4, D2 ag -2.4, TRPML1 agonist -0.1, CtBP-E1A inh 3.6 and D2 potentiator -5.6.
Screening C/C(CC(=O)Nc1cc(Cl)ccc1Cl)=N\NC(=O)c1ccco1 returned PINK1 modulator -0.3%, Six1-Eya2 inh -3.0, D2 ag -1.3, TRPML1 agonist -0.8, CtBP-E1A inh 4.7 and D2 potentiator -25.5.
For CNC(=O)CCC(=O)Nc1ccc(C(=O)OC)cc1 the results were PINK1 modulator -0.2%, Six1-Eya2 inh 5.7, D2 ag -3.3, TRPML1 agonist -0.6, CtBP-E1A inh -9.7 and D2 potentiator -2.6.
COc1ccc(CNC(=O)C2CCCN(c3nccc(C)n3)C2)cc1 (configuration not stated) was read as PINK1 modulator 2.7%, Six1-Eya2 inh 9.0, D2 ag -0.3, TRPML1 agonist -0.6, CtBP-E1A inh 3.2 and D2 potentiator -2.6.
CN(C)S(=O)(=O)c1ccc(Cl)c(NC(=O)COC(=O)C2CCCO2)c1 (configuration not stated) was read as PINK1 modulator 1.6%, Six1-Eya2 inh 0.9, D2 ag -5.0, TRPML1 agonist -0.4, CtBP-E1A inh 0.3 and D2 potentiator -12.6.
`O=C(N/N=C/c1cccc(Cl)c1Cl)Nc1ccccc1` gave PINK1 modulator 3.1%[38.3 µM], Six1-Eya2 inh 4.2, D2 ag -1.4, TRPML1 agonist 0.6, CtBP-E1A inh 6.1 and D2 potentiator -6.2.
O=C(O)CC(c1ccccc1)c1ccccc1 was read as PINK1 modulator 0.7%[38.3 µM], Six1-Eya2 inh -0.3, D2 ag 2.0, TRPML1 agonist 1.6, CtBP-E1A inh -0.1 and D2 potentiator -6.0.
Cc1onc(-c2c(F)cccc2Cl)c1C(=O)N(Cc1ccccc1)C(C)C was read as PINK1 modulator -0.2%, Six1-Eya2 inh 9.0, D2 ag -3.1, TRPML1 agonist 0.1, CtBP-E1A inh 0.0 and D2 potentiator -4.8.
`CCN(C(=O)CSc1nc2c(cnn2-c2ccccc2)c(=O)[nH]1)C1CCS(=O)(=O)C1` (configuration not stated) gave PINK1 modulator 0.2%, Six1-Eya2 inh 7.4, D2 ag 1.8, TRPML1 agonist 0.9, CtBP-E1A inh -1.3 and D2 potentiator -14.3.
COc1cc(OC)c(NC(=O)Cn2cnc3sc(C)c(S(=O)(=O)N4CCOCC4)c3c2=O)cc1Cl was read as PINK1 modulator -2.2%, Six1-Eya2 inh -7.3, D2 ag -2.5, TRPML1 agonist 1.4, CtBP-E1A inh -0.9 and D2 potentiator -5.9.
`CC(C)=C1C2CCC1C1C(=O)N(NC(=O)COc3ccc(Cl)c(C)c3)C(=O)C21` (configuration not stated) gave PINK1 modulator -0.7%, Six1-Eya2 inh 7.2, D2 ag 1.3, TRPML1 agonist 0.3, CtBP-E1A inh -0.2 and D2 potentiator -14.7.

Screens: PubChem, National Center for Advancing Translational Sciences (NCATS)
